Source: PubChem
TRPML1 inh: inhibitors of human TRPML1 channel. Q9GZU1. TRPML1-inducible cells, Ca2+ dye fluorescence, FDSS; hits give low values; inhibition of EC80 agonist-evoked calcium signal. activity change, negative = inhibition, % (concentration not given with the values). 0.02% of 390,000 active; in the data active means activity change below about -50%; inconclusive means about -30% to -50%; inactive means above about -30%;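 note: stimulus is agonist 54-4 at its EC80 concentration; % is set by controls: 0 for no effect and ±100 for the full control effect; compound concentration not given in the record; the text of the record puts the active cut at -80%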
Target sequence (Q9GZU1 whole entry, looked up): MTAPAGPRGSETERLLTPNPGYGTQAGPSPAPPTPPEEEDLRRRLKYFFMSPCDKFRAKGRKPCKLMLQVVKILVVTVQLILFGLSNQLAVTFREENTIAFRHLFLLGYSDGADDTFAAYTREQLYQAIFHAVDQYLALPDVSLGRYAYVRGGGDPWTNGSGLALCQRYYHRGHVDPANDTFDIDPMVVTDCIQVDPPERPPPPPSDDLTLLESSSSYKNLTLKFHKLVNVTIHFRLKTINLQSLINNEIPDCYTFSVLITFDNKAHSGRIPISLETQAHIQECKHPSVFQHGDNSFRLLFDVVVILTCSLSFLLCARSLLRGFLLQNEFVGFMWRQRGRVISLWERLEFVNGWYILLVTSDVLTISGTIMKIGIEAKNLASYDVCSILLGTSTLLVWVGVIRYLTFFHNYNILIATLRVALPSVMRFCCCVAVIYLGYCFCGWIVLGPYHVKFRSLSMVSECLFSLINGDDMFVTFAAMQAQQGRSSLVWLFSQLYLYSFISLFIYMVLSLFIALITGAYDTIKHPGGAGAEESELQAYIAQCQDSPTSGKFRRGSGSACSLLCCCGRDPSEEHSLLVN
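TRPML1-DL cells, Tet-induced overnight (~16 h, 37 °C) at 1,500 cells/well, were loaded with Ca8 no-wash dye plus quencher for 45-90 min at room temperature. Compounds were pinned during FDSS kinetic reading; agonist 54-4 at EC80 (4 uM final) then added.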
gsp antag: antagonizes gsp, the McCune-Albright syndrome mutation | gsp-mutant cells, cAMP HTRF, 30 min; control for the full effect not named in the record | Potency, µM (top dose mostly 76.9 µM), for the others: at the top dose activity change, negative = inhibition, most hits filed as inhibitors | 0.4% of 340,000 active; active = falling curve of any shape with a large fitted effect; inconclusive = falling curve, mostly with a smaller effect; inactive = flat or rising curve; cell line not stated here;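 note: intracellular cAMP measured with PDE inhibitor Ro 20-1724 present during compound exposure; potency is the fitted concentration of half-maximal effect; % is set by controls: 0 for no effect and ±100 for the full control effect; nearly all actives have a fitted effect of over 65% in size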
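Measurement of cellular cAMP by homogeneous time-resolved fluorescence following a 30 min compound exposure at 37C. The PDE inhibitor […] was present throughout; the assay buffer was DPBS with 0.05% BSA and 0.005% Tween 20.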
Sfp PPTase inh: blocks B. subtilis Sfp PPTase activity; Q9F4F7; 3.5% of 310,000 active; Potency, µM, without a hit: max response, negative = inhibition, actives largely listed as inhibitors; Biochemical Sfp PPTase activity, qHTS; active = well fitted inhibition curve with a large enough effect; inconclusive = small, poorly fitted or top-dose-only effect, or another doubt; inactive = no such curve, though single readings can be large or run the other way;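 note: the enzyme is Sfp with the accession as filed and its product quenches rhodamine fluorescence; potency is the fitted concentration of half-maximal effect; 0% = enzyme reaction without inhibitor and -100% = no enzyme wells; top concentration of the series not given in the record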
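After 15 min at room temperature with compound, 15 nM Sfp received 5 uM rhodamine-CoA plus 12.5 uM BHQ-2-ybbR (50 mM Hepes pH 7.6, 10 mM MgCl2). Rate came from the fluorescence difference over 30 min, ex 525/em 598 nm.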
ClpP mod: qHTS Assay for Activators of ClpP; ATP-dependent Clp protease proteolytic subunit (Bacillus subtilis (strain 168)), P80244; purified B. subtilis ClpP, FRET peptide cleavage, 20 min; Potency, µM (titrated, usually from 57.5 µM), inactives show top-dose activity change, negative = active; 1.9% of 340,000 active; active = well fitted falling curve with a large enough effect; inconclusive = small, poorly fitted or top-dose-only effect; inactive = no such curve, though single readings can be large or run the other way; note: potency is the fitted concentration of half-maximal effect; the source files actives as falling curves though it sought activators and does not explain the sign; nearly all actives have a fitted effect of over 65% in size; many hits overshoot -100%
Target sequence (P80244 whole entry, looked up): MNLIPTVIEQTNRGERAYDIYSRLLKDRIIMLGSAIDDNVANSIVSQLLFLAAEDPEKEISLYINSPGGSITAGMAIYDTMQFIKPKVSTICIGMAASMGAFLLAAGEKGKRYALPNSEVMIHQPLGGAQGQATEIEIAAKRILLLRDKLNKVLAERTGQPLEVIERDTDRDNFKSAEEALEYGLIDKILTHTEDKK
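ClpP 10 microg/mL final, pH 8 Tris/KCl buffer with BSA, glycerol, Tween-20; compound pinned in; FRET-FV substrate; RT 20 min; Ex320/Em430; ΔFRET vs ADEP 5.8 microM, DMSO, no enzyme.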
gsp ag: gsp mutant agonism | gsp mutant cells, cAMP HTRF, 30 min; control for the full effect not named in the record | Potency, µM (doses to about 76.9 µM), inactives show at the highest dose activation (cAMP increase), actives largely listed as activators | 0.13% of 340,000 active | AID 624287; active = well fitted activation curve with a large enough effect; inconclusive = small, poorly fitted or top-dose-only effect, or another doubt; inactive = no such curve, though single readings can be large or run the other way; cell line not stated here;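 note: phosphodiesterase inhibitor Ro 20-1724 added with compounds to block cAMP breakdown; potency is the fitted concentration of half-maximal effect; nearly all actives have a fitted effect of over 60% in size; about a fifth of the inactives were tested at one dose only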
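Cells in DMEM/10% FBS with G418 were pretreated with compounds in DMSO plus […] (300 uM stock) for 30 min at 37C. cAMP was measured by HTRF (cAMP-d2 plus anti-cAMP antibody-K) after 30 min at room temperature.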
Menin MLL FP FL: displaces fluorescein MLL peptide from human menin; Fluorescence polarization, fluorescein-MLL peptide displacement from menin; FP activity change, % at 61.4 µM; 290,000 tested, under 10 active; AID 1766; inconclusive = falling polarisation curve, or a change in total fluorescence; inactive = total fluorescence flat and polarisation flat or rising; no compound was filed as active; the % refers to the polarisation; negative = inhibition;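 note: % of control where 0% means no effect; inhibitors lower the polarisation; unlabelled MLL peptide was the positive control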
TRPV1 PAM: human TRPV1 potentiation | Q8NER1 | TRPV1-expressing cells, Fluo-8 calcium influx, capsaicin EC20 potentiation; host cell line not named in the record; control for the full effect not named in the record | potentiation, % at 8.33 µM | 0.02% of 320,000 active | AID 540277; active means potentiation above 80%; inconclusive means 30% to 80%; inactive means below 30%; note: 0% is about no effect
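TRPV1-expressing cells were cultured overnight at 35.5C and loaded with Fluo-8 calcium dye for 40 to 90 min at room temperature. After a 10 s baseline, compound was added and calcium influx was read kinetically for 3 min (ex 480/em 520 nm).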
* hit, by the source's call; ? = inconclusive; . = not tested or not shown; & = joins results of further samples; [ ] = dose if it differs, or a comment. This is a random part of the collection. About 4.9% of those tested had a hit in this group.

Compound	TRPML1 inh	gsp antag	Sfp PPTase inh	ClpP mod	gsp ag	Menin MLL FP FL	TRPV1 PAM
Cc1cccc(NC(=O)Cn2cnc3sc(C)c(S(=O)(=O)N4CCC(C)CC4)c3c2=O)n1	12	-17%	21%	3.0%	?	-0.2	-2
CN(C1CCCCC1)S(=O)(=O)c1ccc(SCC(=O)NC(C)(C)C)nc1	1	-3%	.	0.0%	-15%	.	-11
CC(C)(C)CC(C)(C)NCC(O)COc1c(F)cc(Br)cc1F (configuration not stated)	6	8%	?	-1.9%	-37%[inhibitor]	4.7	-1
CN=C1S/C(=C\c2c(OC)cc(OC)cc2OC)C(=O)N1C	-8	-7%	2%	.	9%[15.4 µM]	1.9	-1
O=C(NCc1cccs1)[C@@H]1CCCN1S(=O)(=O)c1ccccc1F	-7	2%	.	.	-1%	.	.
Cc1cnc(NC(=O)[C@H](C)N2C(=O)C3CCCCC3C2=O)s1 (some centres not stated)	46	17%	5%	.	-23%[15.4 µM]	0.4	0
CCOC(=O)/C=C1\NC2(CCCCC2)Cc2cc(OC)c(OC)cc21	6	-13%	.	-3.4%	17%	.	.
COc1ccc(C(=O)NCC(=O)Nc2cccc(S(=O)(=O)N3CCCC3)c2)cc1	-8	-18%	.	-1.9%	-5%	.	.
O=C(COc1ccc(F)cc1)N(CC1=CCS(=O)(=O)C1)c1ccccc1	-6	-17%	12%	-0.1%	0%	0.8	6
CN(C)S(=O)(=O)c1cccc(NC(=O)CNC2CCCCC2)c1	35	5%	-10%	-0.8%	3%	-1.3	-12
OCCC1CN(Cc2cccc3nccnc23)CCN1C1CCCC1 (configuration not stated)	-13	6%	2%	.	6%	-1.9	-7
CC(=O)Nc1ccc(S(=O)(=O)N(C)CC(=O)N/N=C/c2cccs2)cc1	-7	14%	9%	.	-1%[15.4 µM]	.	5
O=C(c1cccs1)N1CCN=C1SCc1ccccc1	-2	?	-4%	0.7%	-4%	-0.5	-14
COc1ccc(NC(=O)CCSc2ccc(F)cc2)cc1	5	-13%	9%	.	-1%	-0.9	-10
CCN(c1ccccc1)S(=O)(=O)c1ccc(OC)c(NC(=O)CNC)c1	-9	4%	-2%	.	-1%[15.4 µM]	-0.1	9
COc1ccc(S(N)(=O)=O)cc1C(N)=O	-7	20%	25%	-0.3%	-29%	-0.3	7
COc1ccc(Nc2cc(C)c3cc([N+](=O)[O-])ccc3n2)cc1	-10	?	?	-3.2%	-4%	11	11
Cc1nnc(-c2ccccc2)o1	.	6%	-2%	0.4%	4%	-2.1	11
Cc1c(NC(=O)CSc2nnnn2Cc2ccccc2)c(=O)n(-c2ccccc2)n1C	2	9%	9%	-0.1%	24%	4.3	-14
Cc1cccc(Nc2cc(C)nc3ccccc23)c1	6	3%	8%	.	22%	1.6	-2
Cc1cccc(C)c1OCC(O)CN (configuration not stated)	6	12%	11%	1.0%	?	0.6	3
CCOc1ccc(S(=O)(=O)NCCC(=O)NCC(c2ccc(F)cc2)N2CCOCC2)cc1 (configuration not stated)	-13	9%	.	0.6%	4%	.	7
COc1ccc(OC)c(NC(=O)C(=O)c2cn(CC(=O)N3CCCC3)c3ccccc23)c1	-14	?	-5%	-1.4%	6%	0.9	-1
COC(=O)c1c(NC(=O)CN2C(=O)NC(CCc3ccccc3)C2=O)sc2c1CCCCC2 (configuration not stated)	-7	-11%	16%	-12%	-20%	-0.2	9
COc1ccc(C(=O)Nn2c(SCC(=O)NC3CCCC3)nc3ccccc3c2=O)cc1	-7	2%	16%	-8.5%	-4%	0.5	0
CC(C)(C)c1ccc(C(=O)Nc2nnc(Cc3c[nH]c4ccccc34)s2)cc1	-3	-7%	-13%	-2.7%	12%[15.4 µM]	3.5	-2
CC(C)(C)C(=O)Nc1cc2c3c(c1)CC(=O)N3CCC2	-11	9%	5%	0.5%	-13%	-0.6	-18
N/C(CSc1ccccn1)=N\OCc1c(Cl)cccc1Cl	-6	3%	12%	.	6%	1.3	-10
CCOC(=O)c1ccccc1NC(=O)COc1cc(=O)n(CC)c2ccccc12	3&4	-11%	?	-21%&0.4%	12%	5.5	-4
CC(=O)c1cc(-c2ccccc2)n(CCC(=O)NC2CCCCC2)c1C	-16&-7	3%	8%	3.2%&-10%	-22%	0.8	-1
CCOC(=O)c1c(C)n(CC(O)CN(CC)CC)c2cc(Br)c(OC)cc12 (configuration not stated)	7	8%	10%	0.6%	11%[15.4 µM]	-2.6	-3
CCOc1ccc(-n2nc3ccc(N)cc3n2)cc1	.	6%	-17%	4.5%	23%	-1.7	1
Cc1ccccc1Nc1cc(C)c2c(O)cccc2n1	7	6%	-20%	-4.6%	?	0.8	-2
COC(=O)C1C(=O)/C(=C/N(C)C)C(=O)CC1(C)C (configuration not stated)	6	.	15%	.	10%[15.4 µM]	-18	6
CCOC(=O)C1(Cc2ccccc2C)CCCN(C(=O)c2cc(CC)nn2C)C1 (configuration not stated)	9	2%	-1%	-0.3%	-23%	1.4	-17
O=C(CCC(=O)N1CCCCC1)Nc1nnc(C2CCCCC2)s1	-16	1%	16%	-0.7%	?	.	-13
CCn1c(SCc2cccc(F)c2)nnc1-c1ccncc1	12	9%	15%	-0.1%	26%	6.3	3
CCN(CC)S(=O)(=O)c1ccc(Cl)c(NC(C)=O)c1	9	4%	13%	.	?	-0.7	6
COc1ccccc1CNC(=O)COC(=O)c1cnc(C)cn1	17	.	.	-3.3%	-45%[inhibitor]	.	.
CNc1nc(-c2ccc(S(=O)(=O)N3CCCCC3)cc2)cs1	-12	-9%	.	4.6%	17%	.	-13
O=C(NC(=S)N1CCN(c2ccc(C(F)(F)F)cc2[N+](=O)[O-])CC1)c1cccs1	0	?	31%[activator]	1.3%	?	-1.3	13
COc1ccc(NC(=O)COC(=O)Cn2c(C)nc3ccccc32)cc1OC	6	4%	18%	-9.8%	-12%	3.5	1
COC(=O)COc1ccc(S(=O)(=O)NCc2ccc3c(c2)OCO3)cc1C	1	0%	2%	2.4%	-11%	-3.1	4
O=C(NNS(=O)(=O)c1ccc([N+](=O)[O-])cc1)C(=O)Nc1cccc(C(=O)O)c1	-6	6%	40µM*	-11%	-1%	0.3	16
O=C(Nc1ccc(N2CCOCC2)cc1)c1ccc2ncsc2c1	12	-20%	.	-2.1%	11%[15.4 µM]	.	.
Cc1ccc(-c2nnc(SCC(=O)NC3CCCc4ccccc43)n2N)cc1 (configuration not stated)	15	1%	3%	0.6%	-19%	.	14
N#Cc1ccccc1OCC(=O)Nc1ccc2c(c1)OCO2	1	.	.	0.7%	-9%	.	.
COc1ccc(C(=O)NCCS(=O)(=O)N2CCCC2)cc1	-7	12%	.	-0.5%	-44%[inhibitor]	.	-6
COCCCn1c(C)nnc1SCC(=O)Nc1ccc(C(C)=O)cc1	.	8%	3%	-0.8%	2%	-0.2	6
O=C(Nc1ccc(OCC(=O)N2CCN(S(=O)(=O)c3ccccc3)CC2)cc1)c1ccco1	12	-2%	-7%	-0.5%	6%	-0.5	24
CCCOc1ccc(Cn2c(=O)oc3ccc(C)cc32)cc1	6	-12%	-6%	-1.8%	19%	.	12
Cc1ccccc1NC(=S)NC(NC(=O)C(C)(C)C)C(Cl)(Cl)Cl (configuration not stated)	4	3%	8%	1.6%	8%	-2.1	-8
CCOC(=O)N1CCN(C(=O)c2ccc(CS(=O)c3ccccc3)o2)CC1 (configuration not stated)	-17	20%	14%	-0.3%	-20%	.	16
CCc1ccc2nc(NC(=O)c3cc(C)on3)sc2c1	-4	-7%	5%	-4.1%	-58%[inhibitor]	5.7	8
CC[C@@]1(C(=O)OC)N[C@H](CN(C)C(=O)Nc2ccccc2)[C@@H]2C(=O)N(C)C(=O)[C@@H]21	-14	4%	.	1.1%	.	.	.
COc1ccc2oc(-c3ccc(C)c(NC(=O)c4ccc(N5CCOCC5)c([N+](=O)[O-])c4)c3)nc2c1	-7	-2%	-14%	-3.8%	13%	2.3	14
C=CCn1cnc2c(c1=O)c1nc3ccccc3nc1n2/N=C/c1ccccn1	-3	-18%	10%	?	-12%	1.1	3
COC(CNC(=O)[C@H](CSCc1ccccc1)N1Cc2ccccc2C1=O)OC	0	12%	11%	.	-35%[15.4 µM]	-1.6	-1
O=C(CCN1C(=O)/C(=C\c2ccccc2F)SC1=S)Nc1ccc(C(=O)O)c(O)c1	.	.	4%	.	.	-0.5	5
NS(=O)(=O)c1ccc(CNC(=O)/C=C/c2ccccc2)cc1	7	9%	6%	1.5%	-1%	-0.2	-15

The list goes on.
Compound	TRPML1 inh	gsp antag	Sfp PPTase inh	ClpP mod	gsp ag	Menin MLL FP FL	TRPV1 PAM
S=C(NC1CCCCC1)N1CCN(c2ncccn2)CC1	0	0%	5%	-5.3%	-27%	-2.8	9
O=C(N/C(=C\c1ccc(Cl)cc1)C(=O)N1CCCCC1)c1ccco1	-19	-7%	20%	.	19%	-2.8	4
CCOC(=O)C1(CCOC)CCN(Cc2ccncc2)CC1	7	5%	18%	.	-15%	-1.6	-3
Cc1cccc[n+]1CC(=O)c1ccc(NC(=O)c2ccccc2)cc1	19	6%	3%	0.1%	-5%	-0.8	13
O=C(CCl)Nc1cccc(S(=O)(=O)N2CCCCCC2)c1	4	0%	20%	1.0%	20%	2.1	5
Cc1csc(SC(C)C(=O)NCc2ccc3c(c2)OCO3)n1 (configuration not stated)	-4	3%	-4%	-7.1%	2%[15.4 µM]	-1.7	-8
O=C1NC[C@H](Cc2ccccc2)N(CC2CCN(CC3CCCC3)CC2)C1=O	6	-8%	.	-5.9%	.	.	.
CCOc1ccc(CN2CCCN(C)CC2)cc1	21	-3%	?	-0.1%	-29%	-1.3	-22
